# Screens (PubChem BioAssay)
# NPYLR7 ag = agonists of mosquito NPYLR7 receptor, primary screen, cell-based, Aedes aegypti, calcium fluorescence, mosquito biting behavior; Aedes aegypti neuropeptide Y-like receptor 7 (NPYLR7); HEK293T NPYLR7/Galpha15, GCaMP6s calcium fluorescence; activation, % at 10 µM; hit rate 0.15% among 270,000; AID 1259423, 2018; in the data active = activation above about 40%;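 also: 0% = vehicle and 100% = reference agonist at the receptor; some compounds past the cut are filed as inactive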
# NPYLR7 ag max-min = second read-out of NPYLR7 ag, no call of its own (marks repeat the call); activation, %; measured here: Max-Min RFU normalised activation; some inactives read as strong as hits;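 span of the calcium signal over five minutes; 0% = vehicle and 100% = native peptide agonist; compound fluorescence can raise it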
# An asterisk follows results filed as active. These rows are one share of the data. The share of hits here may be higher or lower than overall.
SMILES,NPYLR7 ag,NPYLR7 ag max-min
Cc1ccc(NC(=S)NNC(=O)CSc2nnc(Nc3ccccc3)n2-c2ccccc2)cc1,5,16
CCn1c(=O)c(C(=O)N(C)C2CCCCC2)nn(-c2cccc(C)c2)c1=O,-6,-2
Oc1ccc(C=NNc2ccc3ccccc3n2)c(O)c1O,4,3
CCC(CC)C(=O)N(C)c1c(C)nc2ccc(C(=O)N(C)CCN(C)C)cn12,0,0
CCn1c(SCC(=O)N/N=C\c2ccc(C(=O)OC)cc2)nc2ccccc21,1,6
CC1(C)OC2OC(C(=O)NNC(=O)CCNC(=O)c3ccccc3)C3OC(C)(C)OC3C2O1 (configuration not stated),-2,-9
O=c1oc(-c2ccco2)nc2ccc(Cl)cc12,14,7
CCOC(=O)C1CCCN(S(=O)(=O)NC2CCCC(C)C2C)C1 (configuration not stated),-1,-3
Cc1c(NC(=O)c2cnn3c(C(F)(F)F)cc(-c4ccco4)nc23)c(=O)n(-c2ccccc2)n1C,8,14
O=S(=O)(NCc1ccc2c(c1)OCO2)c1cccc(Cl)c1,-10,-11
CCOc1c(CNC2CSCCSC2)cccc1OC,-4,-5

# Record cards, from the list above.
# CCOc1c(CNC2CSCCSC2)cccc1OC across the screens: NPYLR7 ag = -4; NPYLR7 ag max-min = -5
# CCOC(=O)C1CCCN(S(=O)(=O)NC2CCCC(C)C2C)C1 (configuration not stated) across the screens: NPYLR7 ag = -1; NPYLR7 ag max-min = -3
# Cc1ccc(NC(=S)NNC(=O)CSc2nnc(Nc3ccccc3)n2-c2ccccc2)cc1 across the screens: NPYLR7 ag = 5; NPYLR7 ag max-min = 16

# Two successive records already listed, for reference:
SMILES,NPYLR7 ag,NPYLR7 ag max-min
O=S(=O)(NCc1ccc2c(c1)OCO2)c1cccc(Cl)c1,-10,-11
CCOc1c(CNC2CSCCSC2)cccc1OC,-4,-5
